NPYLR7 agonist: activates Aedes aegypti NPYLR7 receptor. AID 1259423. hit rate 0.15% among 270,000. HEK293T NPYLR7/Galpha15, GCaMP6s calcium fluorescence. activation, % at 10 µM; in the data active = activation above about 40%;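 also: 0% = vehicle and 100% = reference agonist at the receptor; some compounds past the cut are filed as inactive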
NPYLR7 agonist max-min: recorded beside NPYLR7 agonist, whose call it bears; activation, %; measured here: Max-Min RFU normalised activation; some inactives read as strong as hits;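 span of the calcium signal over five minutes; 0% = vehicle and 100% = native peptide agonist; compound fluorescence can raise it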
An asterisk follows results filed as active; & = joins results of further samples. Some of the compounds tested; rates above refer to the full screens.

Structure	NPYLR7 agonist	NPYLR7 agonist max-min
Cc1cccc(-n2nc(-c3ccc([N+](=O)[O-])cc3)cc2C(=O)NC2CCN(Cc3ccccc3)CC2)c1	2	17
Cc1c(-c2ccc3c(c2)OC(C(=O)NCCN(C)C)O3)oc2ccccc2c1=O (stereo not drawn)	3	0
CN(c1c(C#N)c(=O)n(C)c(=O)n1C)C(c1ccc(F)cc1)C1CC1 (stereo not drawn)	0	-2
COc1nc(-c2ccc(Cl)c(Cl)c2)n(-c2ccc(NC(C)=O)cc2)n1	6	7
O=S(=O)(c1ccc(F)cc1)N1CCC(Cc2ccc(C(F)(F)F)cc2)CC1	3	0
CSc1ccc(C(=O)N(CCC#N)c2ccc(C)cc2)o1	-3	-9
COc1ccc(CC(=O)N(Cc2nc3cc(C)ccc3o2)Cc2ccccc2Cl)cc1	21	27
CCc1nc2ccc(C(=O)NC3CCN(C)CC3)cn2c1N(CC)CCOC	-6	-6
CN(Cc1cc(-c2ccccc2)no1)Cc1ccc(C2CCCO2)s1 (stereo not drawn)	-1	-1
CC1(C)OC(=O)N2CCn3c(cc4ccccc43)C21C (stereo not drawn)	1	50
N#Cc1cnn(C(=O)c2ccc(OCC(F)(F)F)cc2)c1N	0	-3
C=CCOC(C)C(=O)NCCC(=O)Nc1ccc(Br)cc1 (stereo not drawn)	1	9
COc1ccccc1CNC(=O)Cn1c2ccccc2c(=O)c2ccccc21	-4	-8
COc1ccc(-c2noc(CSc3nc(C)c(CCO)c(=O)[nH]3)n2)cc1	-2	-11
CN(C)CCN(C(=O)c1ccc(Cl)s1)c1nc2c(F)cc(F)cc2s1	-3	-6
COCCn1c(C)cc(C(=O)CSc2nnc(C3CC3)n2C2CC2)c1C	-3	7
N=C1C(c2nc3ccccc3s2)C(=O)CN1c1cccc2ccccc12 (stereo not drawn)	2	0
CC1(C)CC(=O)C(N=Nc2cccc(OC(F)F)c2)=C(O)C1	-2	-6
CCOC(=O)Cn1c(=NC(=O)c2ccn(C)n2)sc2cccc(F)c21	3	10
CCc1cccc2c(C(CC(=O)N3CCN(c4ccccc4OC)CC3)c3cccc(F)c3)c[nH]c12 (stereo not drawn)	11	17
CCc1nn2c(=O)cc(CNc3ccc(C)c(Cl)c3)nc2s1	5	3
CN(CCN1CCCC1=O)C(=O)c1ccc2[nH]c3c(c2c1)CCCC3	5	1
COC(=O)c1cc(Cl)c2c(c1)CC(CNC(=O)c1ccc(F)cc1F)O2 (stereo not drawn)	18	14
O=c1c2cnc3ncnn3c2ccn1CCc1cccs1	3	6
C#CCOCC(O)CN(Cc1ccco1)Cc1cccc(OC)c1OC (stereo not drawn)	3	16
CN1C[C@@H](O)[C@]2(CCN(C(=O)c3ccccc3)C2)S1(=O)=O	9	24
COCCCNC(=O)c1ccc2c(c1)ncn2-c1ccccc1	2	2
O=C(c1ccc(-c2noc(C3CC3)n2)cc1)N1CCCC2(CCNC2)C1 (stereo not drawn)	-1	-4
Cc1ccc(-c2cc(C(=O)NC(C)(C)C)c3ccccc3n2)c(C)c1	0	-8
CCC1CN(C2CCN(c3cnn(C)c3)C2=O)CCO1 (stereo not drawn)	4	-8
CC(CCS(C)(=O)=O)NC(=O)NCC(C)c1ccsc1 (stereo not drawn)	4	1
CNC(=O)CN1CCN(C(c2ccccc2)c2ccccc2)CC1	-15	-19
COc1ccccc1-c1n[nH]c(=S)n1C1CCCCC1	-6	-3
Cc1ccc(-c2ccsc2C(=O)NNS(=O)(=O)c2ccc(F)cc2F)cc1	13	11
COc1ccc(S(=O)(=O)N(CC(=O)N2CCc3sccc3C2COc2cccc(F)c2)Cc2ccco2)cc1 (stereo not drawn)	-3	0
Cc1nnsc1CN(C)C(=O)c1onc2ccccc12	11	2
C=CCn1c(C)c(N2CCOCC2)c(C)c1C(=O)N(C)Cc1ccccc1	18	15
COC(C)c1nc(COc2cc(C)ccc2C(C)=O)cs1 (stereo not drawn)	0	0
COc1cccc2c1OCC(C(=O)N(C)Cc1snnc1C)C2 (stereo not drawn)	7	4
O=C(CCC1CCN(C(=O)CCc2ccc3c(c2)OCO3)CC1)NC1CC1	8	6
Cc1ccc2[nH]c(O)c(N=NC(=O)c3ccccc3O)c2c1Br	-4	-7
O=C1CCC/C(=N\NC(=O)COc2cccc(F)c2)C1	7	7
COCCn1cc(NC(=O)Nc2ncccc2C)c2ccccc21	14	6
C=CCSc1nnc(-c2cc(OC)cc(OC)c2)n1-c1ccccc1	-3	4
O=S(=O)(c1cccc2c(Cl)cccc12)N1CCCNCC1	6	-8

4 compounds drawn at random from the list so far:
Structure	NPYLR7 agonist	NPYLR7 agonist max-min
COc1ccccc1-c1n[nH]c(=S)n1C1CCCCC1	-6	-3
Cc1nnsc1CN(C)C(=O)c1onc2ccccc12	11	2
CC(CCS(C)(=O)=O)NC(=O)NCC(C)c1ccsc1 (stereo not drawn)	4	1
Cc1ccc2[nH]c(O)c(N=NC(=O)c3ccccc3O)c2c1Br	-4	-7

(continued)
Structure	NPYLR7 agonist	NPYLR7 agonist max-min
Cc1cc(C)n(CCc2nc(-c3ccc(C)o3)cs2)n1	-1	-1
CN(CC(=O)Nc1ccccc1Cl)C(=O)C1CCN(c2ncc(C(F)(F)F)cc2Cl)CC1	-1	-4
CCOc1nc(-c2ccc(C)cc2)n(-c2ccc(NCC(O)COc3ccccc3C)cc2)n1 (stereo not drawn)	-1	-2
CN(CCNC(=O)c1ccn(-c2ccccc2Cl)n1)C1CC1	5	4
CN(Cc1cnccn1)C(=O)C1CC1c1cc(Cl)cc(Cl)c1 (stereo not drawn)	5	3
CCc1cc(C(=O)N/N=C\c2ccc(N(C)C)cc2)c2ccccc2n1	-3	-5
CCN1CCCC1CNC(=O)c1cc(COc2ccc(C)c(C)c2)on1 (stereo not drawn)	13	5
COC(=O)c1cc(C=CC(=O)O)oc1C	0	6
CC(C)(C)c1ccc(C(=O)NCCNc2nc(-c3ccc(Cl)cc3)nc3ccccc23)cc1	2	3
CCC(=O)Nc1ccc(S(=O)(=O)N(CCOC)C2CCSC2)cc1 (stereo not drawn)	9	4
O=C(c1ccccc1)N1CCN(C(=O)c2cccc3ccccc23)CC1	0	31
CCNC(=S)N1CCC(C(NC(=O)c2ccc(C)cc2)C(=O)NCCOC)CC1 (stereo not drawn)	5	11
Cc1ccc2nc(NC(=O)CSc3ccc4nnc(-c5ccccn5)n4n3)sc2c1	0	1
COC(=O)c1sc(S(=O)(=O)Nc2ccc(F)cc2)c(C(=O)OC)c1C	3	2
CN(Cc1ccc(Cl)cc1)Cc1cc2c(cc1O)CCC2	0	18
CCC(C)N(Cc1ccc(OS(=O)(=O)c2cccc(C(F)(F)F)c2)cc1)C(=O)c1ccccc1OC (stereo not drawn)	23	21
CN(C)CC(C)(O)CNC(=O)c1cc(C#N)cn1C (stereo not drawn)	-3	-6
CCCCN(CCC(=O)N1CCN(c2ccccc2OCC)CC1)c1nc(Cc2ccc(C)cc2)ns1	6	19
CCOC(=O)Cn1c(CN2CC(C)OC(C)C2)nc2c1c(=O)n(C)c(=O)n2C (stereo not drawn)	-11	-14
CCCCOCCCNC(=O)c1cnc2c(-c3cccs3)cnn2c1C	9	3
CC(C)(C)OC(=O)N1CCCC(C(=O)O)C1 (stereo not drawn)	1	8
Cc1ccc(CNCc2scnc2C)c(OCC2CCOC2)c1 (stereo not drawn)	1	-1
CCN1C(=O)NC(c2ccc(SC)cc2)C(C(=O)OCCOC)=C1C (stereo not drawn)	-3	-6
Cc1ccc(C2=NN(C(=O)CN3c4cccc5cccc(c45)S3(=O)=O)C(c3ccco3)C2)cc1 (stereo not drawn)	8	2
COc1ccc(OC)c(-c2cccc(-c3cccc(NC(=O)C4CCCCC4)c3)n2)c1	-5	-6
CN1CCN2CCN(C3CCN(Cc4ccccc4)CC3)CC2C1=O (stereo not drawn)	-2	-2
CN(C(=O)CSc1nnnn1C)C1(C#N)CCCCC1	-6	-1
CC(=O)O[C@@H]1CC2C(C)(C)[C@@H](O)CC[C@]2(C)C2CC[C@@]3(C)[C@H](c4ccoc4)OC(=O)[C@H]4O[C@]43[C@@]21C (stereo partly drawn)	25	26
COc1ccccc1CN(CCN1CCOCC1)Cc1nc(C(=O)Nc2ccc(F)cc2)co1	21	17
CC(=O)O[C@]1(C)CC[C@@]23CC1C(C)(C)[C@@H]2CC[C@H]3C	-8	-10
OCCN1CCN(Cn2nc(C3COc4ccccc4O3)n(-c3ccccc3)c2=S)CC1 (stereo not drawn)	-5	-6
Cc1csc(NC(=O)N2CCCC2CN(C)C)n1 (stereo not drawn)	0	-3
CSc1cccc(NC(=O)NCCNc2cc(-n3ccnc3C)nc(C)n2)c1	-15	-22
CCOc1ccccc1CN(C(=O)c1cn(CC)c2nc(C)ccc2c1=O)C1CC1	1	-4
C#CCOc1ccc(F)cc1NC(=O)NCC(O)c1ccsc1 (stereo not drawn)	2	50
Cc1ncc2c(c1CNC(=O)CCOc1ccccc1)CCN(CC1CC=CCC1)C2 (stereo not drawn)	3	1
COc1cc(NC(=O)NC[C@H]2O[C@@H](CO)[C@@H](O)[C@@H]2N(C)Cc2ccccc2)cc(OC)c1	-7	-9
COc1ccc(C(NC(=O)C2CCN(CCCN3C(=O)C4CCCCC4C3=O)CC2)c2cccs2)cc1 (stereo not drawn)	5	-4
O=C(OCc1nc(C(=O)NCc2ccc3c(c2)OCO3)cs1)c1ccccc1	1	-1
CC(C)(C)c1ccc2oc(=O)n(C3CCN(C(=O)c4cccc(F)c4)CC3)c2c1	3	-1
Cc1cc(C)n(-c2ccc(CN3CCC4(CC3)OCCO4)cc2)n1	0	15
Cc1nn(-c2ccccc2)c2c1C1(C(=O)Nc3ccccc31)C(C#N)C(=N)O2 (stereo not drawn)	-7	-13
Cc1cccc(Nc2ncccc2C(=O)NCCCn2c(=O)[nH]c3ccccc32)c1C	1	-5
CCOc1ccc(CN2CCCn3cccc3C2c2ccc(Cl)c(Cl)c2)cc1 (stereo not drawn)	12	13
Cn1cccc1-c1cc(C(=O)N2CCN(c3ccc([N+](=O)[O-])cc3)CC2)n(-c2ccc(Cl)c(Cl)c2)n1	0	15
O=C1CCCCN1c1cccc(NS(=O)(=O)c2ccccc2[N+](=O)[O-])c1	11	7
CCCCCn1cc(C2CCN(C(=O)c3ccc([N+](=O)[O-])o3)CC2)c2ccccc21	10	0
C=CCN(C)S(=O)(=O)c1ccc(Br)cc1	-2	-6
CCCn1c(=O)c2c(nc3n(-c4ccc(C(F)(F)F)cc4)c(C)cn23)n(C)c1=O	2	-1
COCC(=O)N(Cc1ccco1)Cc1c(-c2ccccc2)noc1N1CCCC1	5	4
FC(F)(F)c1cccc(Nc2ncnc3sc4c(c23)CCCC4)c1	-6	-13
Cc1ccc(N=Cc2nc(-c3ccc(C)cc3)oc2O)cc1	-3	-11
Cc1cc(C)n(-c2ccc(NC(=O)C3CCCCN3C(=O)C(=O)c3ccccc3)cc2)n1 (stereo not drawn)	5	-5
N#CCCN(C(=O)CCc1ccc(C(F)(F)F)cc1)C1CC1	2	0
CCc1nccc(CN2CCCn3nc(C(=O)OC)cc3C2)n1	16	12
COc1ccccc1COn1c(=O)c(-c2ccco2)[n+]([O-])c2ccccc21	15	6
C=CCOc1cccn2c(N(C)C(=O)C(C)C)c(CC)nc12	-4	1
CN1CCCN(C(=O)c2cccc(N)c2Nc2ccccc2)CC1	2	0
Clc1ccc2nc(-c3ccco3)c(Nc3ccc4c(c3)OCO4)n2c1	-1	-5
Cc1ccc(C(=O)NCC(=O)N2CCC3CCCCC3C2)cc1C (stereo not drawn)	-3	-4

Three of these compounds in another layout.
Cc1ccc(C(=O)NCC(=O)N2CCC3CCCCC3C2)cc1C (stereo not drawn)
  NPYLR7 agonist = -3
  NPYLR7 agonist max-min = -4

COCC(=O)N(Cc1ccco1)Cc1c(-c2ccccc2)noc1N1CCCC1
  NPYLR7 agonist = 5
  NPYLR7 agonist max-min = 4

CCCn1c(=O)c2c(nc3n(-c4ccc(C(F)(F)F)cc4)c(C)cn23)n(C)c1=O
  NPYLR7 agonist = 2
  NPYLR7 agonist max-min = -1

Continued.
Structure	NPYLR7 agonist	NPYLR7 agonist max-min
O=C(c1ccc(-c2ccccc2)c(F)c1)C1CCCN(C(=O)c2ccco2)C1 (stereo not drawn)	7	5
Cn1c(=O)oc2ccc(C(=O)N3Cc4cnc(C(C)(C)C)nc4C3)cc21	9	0
Cn1cc(C(=O)NC2CCCCC2)c2[nH]c(=O)n(Cc3ccccc3)c(=O)c21	2	1
CC12CCC(C/C1=N\Nc1nn[nH]n1)C2(C)C (stereo not drawn)	-15	-23
Oc1ccccc1C=NN1CCN(Cc2ccccc2)CC1	-3	-7
CSc1nnc2c(n1)OC(c1ccco1)Nc1ccccc1-2 (stereo not drawn)	-1&5	-2&5
O=S(=O)(c1ccc(C(F)(F)F)cc1)N1CCC(CO)(Cc2cccc(C(F)(F)F)c2)CC1	3	0
CC1(C)O[C@@H]2C[C@@](OCc3ccccc3C#N)(C(=O)NCc3ccco3)CC(OCc3cccc(OC(F)(F)F)c3)[C@@H]2O1 (stereo partly drawn)	2	4
CC(C)(C)c1ccc(S(=O)(=O)NCc2ccc3c(c2)OCO3)cc1	4	1

Individual results from the entries so far:
Result of `CC(C)(C)c1ccc(S(=O)(=O)NCc2ccc3c(c2)OCO3)cc1` under NPYLR7 agonist: 4
Result of `Cn1cc(C(=O)NC2CCCCC2)c2[nH]c(=O)n(Cc3ccccc3)c(=O)c21` under NPYLR7 agonist: 2

Among those listed so far, two contain a COOH group:
Structure	NPYLR7 agonist	NPYLR7 agonist max-min
COC(=O)c1cc(C=CC(=O)O)oc1C	0	6
CC(C)(C)OC(=O)N1CCCC(C(=O)O)C1 (stereo not drawn)	1	8
